Source: PubChem BioAssay (several laboratories)
HSV augment = increases HSV replication in cells | HSV replication augmentation in cells, fold increase | maximum fold increase | 0.005% of 220,000 active;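 active = peak rise of 1.5-fold or more in the series; inconclusive = self-fluorescent or not available for retest; tested in PC3 cells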;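 also: first round at 10 µM; read as green reporter fluorescence; hits show the peak of a series up to 25 µM; 1 = signal of infected wells without compound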
RGS16-Gao = RGS16-Galphao interaction regulator (human). bead-based flow cytometry RGS16-Galphao binding, fluorescence; actives lie on both sides. 0.38% of 220,000 active. binding response (% of control), % at 10 µM. O15492+P09471;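 active = below 25% or above 175%, edge rows of some plates excepted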;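 also: Galphao activated by GDP with aluminum fluoride before binding; 100% = wells without compound and 0% = beads without RGS; some results beyond the cut were filed as inactive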
GALR2 agonist = GALR2 (human) receptor agonism; O43603; GALR2-expressing cells, agonist activation read-out; activation, %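 (tested at 5 µM)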; 0.48% of 140,000 active;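 active = above mean plus 3 SD of all compounds, about 5% in these data, not always enough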;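 also: 0% = vehicle buffer wells and 100% = reference agonist at full effect; tested in CHO reporter cells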
PKD1 kinase inh = PKD1 (human) kinase inhibition | Q15139 | PKD1 kinase fluorescence polarization assay | inhibition, %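 (about 10 µM by stock and volumes)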 | 0.056% of 200,000 active | AID 797;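 active = inhibition of 50% or more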;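 also: controls were vehicle for no effect and a reference inhibitor for full effect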
Target sequence (Q15139 whole entry, looked up): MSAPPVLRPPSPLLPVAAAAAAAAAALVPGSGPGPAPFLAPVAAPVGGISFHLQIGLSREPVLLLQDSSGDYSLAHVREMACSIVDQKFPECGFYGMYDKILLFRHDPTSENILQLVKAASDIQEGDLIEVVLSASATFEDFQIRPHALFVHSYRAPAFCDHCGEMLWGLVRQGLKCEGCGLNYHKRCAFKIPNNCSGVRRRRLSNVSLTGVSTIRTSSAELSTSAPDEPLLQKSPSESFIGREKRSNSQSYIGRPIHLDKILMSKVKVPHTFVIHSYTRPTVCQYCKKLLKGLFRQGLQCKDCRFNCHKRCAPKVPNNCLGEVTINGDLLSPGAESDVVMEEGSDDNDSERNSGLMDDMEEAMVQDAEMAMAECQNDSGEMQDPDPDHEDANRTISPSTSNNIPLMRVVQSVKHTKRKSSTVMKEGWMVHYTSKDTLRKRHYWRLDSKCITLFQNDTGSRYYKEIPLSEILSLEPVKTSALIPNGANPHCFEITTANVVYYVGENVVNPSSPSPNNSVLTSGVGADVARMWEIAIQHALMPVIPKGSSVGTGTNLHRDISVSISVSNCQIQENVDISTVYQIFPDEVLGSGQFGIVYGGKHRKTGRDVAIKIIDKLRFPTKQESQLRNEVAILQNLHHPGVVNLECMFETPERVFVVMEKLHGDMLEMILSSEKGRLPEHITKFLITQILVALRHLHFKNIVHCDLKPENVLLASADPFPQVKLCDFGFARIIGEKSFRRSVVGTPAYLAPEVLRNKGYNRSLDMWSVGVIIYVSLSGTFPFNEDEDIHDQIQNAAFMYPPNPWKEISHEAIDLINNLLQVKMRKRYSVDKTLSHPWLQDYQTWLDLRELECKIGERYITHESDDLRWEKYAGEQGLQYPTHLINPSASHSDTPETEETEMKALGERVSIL
INS promoter inh = TRM-6 insulin promoter activity inhibition | 0.9% of 130,000 active | inhibition, % at 2 µM | TRM-6 cells (human fetal islet line), insulin promoter-eGFP reporter, imaging; reporter expression induced with tamoxifen;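 active = inhibition above the mean plus 3 SD, with well images judged a real hit on visual review, cut at about 60% in these data, passing the limit was not always enough; inconclusive = inhibition over the cutoff but images rejected on review; inactive = inhibition not above the cutoff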
INS promoter inh cell count = recorded beside INS promoter inh, whose call it bears; normalized cell count, %; measured here: cell count, toxicity; reference of the scale not given here;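 cells exposed to compound for 48 h; stained nuclei by imaging scaled within each plate; lower means fewer cells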
HSV augment primary fold = second read-out of HSV augment, no call of its own (marks repeat the call); fold increase; compound at 10 µM; measured here: primary screen fold increase 10 uM; tested in PC3 cells;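 GFP signal in the first replicate; 1 = infected wells without compound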
* marks the source's active call; other numbers are inactive results.

Screening Cn1cc(/C=N/n2cnc3scc(-c4ccccc4)c3c2=O)c2ccccc21 returned HSV augment inactive, RGS16-Gao 98, GALR2 agonist 0.2, PKD1 kinase inh 8, INS promoter inh -355, INS promoter inh cell count 17 and HSV augment primary fold 0.6.
For CCOC(=O)C1(Cc2cccc(OC)c2)CCCN(Cc2nccn2CC)C1 (centres undefined) the results were HSV augment inactive, RGS16-Gao 101, PKD1 kinase inh -1 and HSV augment primary fold 0.96.
Screening CCOC(=O)C1=C(C)NC(C)=C(C(=O)OCC)C1c1cn(-c2ccccc2)nc1-c1ccco1 returned HSV augment inactive, RGS16-Gao 97, GALR2 agonist -0.8, PKD1 kinase inh -4, INS promoter inh -36, INS promoter inh cell count 115 and HSV augment primary fold 0.77.
CC(=O)Nc1c(O)nc(SCC(=O)Nc2ccc(C(C)=O)cc2)[nH]c1=O was read as HSV augment inactive, RGS16-Gao 99, GALR2 agonist -1.6, PKD1 kinase inh -3, INS promoter inh 8, INS promoter inh cell count 159 and HSV augment primary fold 0.93.
Screening CN(CC(=O)Nc1ccc(Cl)cc1)CC(=O)Nc1cc(Cl)ccc1C#N returned HSV augment inactive, RGS16-Gao 92, GALR2 agonist -1.2, PKD1 kinase inh -4, INS promoter inh -19, INS promoter inh cell count 111 and HSV augment primary fold 0.83.
For O=c1c2ccccc2oc2nc(-c3cccs3)n(CCc3ccccc3)c(=O)c12 the results were HSV augment inactive, RGS16-Gao 101, GALR2 agonist -0.9, PKD1 kinase inh 6, INS promoter inh -23, INS promoter inh cell count 112 and HSV augment primary fold 1.
Screening CC(=O)Nn1c(-c2ccccc2)cc2ccccc21 returned HSV augment inactive, RGS16-Gao 121, GALR2 agonist -1.8, PKD1 kinase inh -6, INS promoter inh -21, INS promoter inh cell count 103 and HSV augment primary fold 1.
Cc1cc(C(F)(F)F)n2nc(-c3cnn(C)c3C(F)(F)F)c(Br)c2n1 was read as HSV augment inactive, RGS16-Gao 101, PKD1 kinase inh 2, INS promoter inh -40, INS promoter inh cell count 115 and HSV augment primary fold 0.99.
For Cc1cccc(N2CCN(C(=O)c3ccc(NS(=O)(=O)c4c(C)noc4C)cc3)CC2)c1C the results were HSV augment inactive, RGS16-Gao 107, GALR2 agonist -0.1, PKD1 kinase inh -8, INS promoter inh -80, INS promoter inh cell count 96 and HSV augment primary fold 0.88.
Screening Cc1cccc(C)c1OCC(=O)N/N=C/c1cc2c(cc1[N+](=O)[O-])OCO2 returned HSV augment inactive, RGS16-Gao 104, GALR2 agonist -0.5, PKD1 kinase inh 2, INS promoter inh 16, INS promoter inh cell count 56 and HSV augment primary fold 0.87.
`O=C(Oc1ccc2cc(Br)ccc2c1)c1cccnc1` gave HSV augment inactive, RGS16-Gao 223, GALR2 agonist -1.1, PKD1 kinase inh 6, INS promoter inh 3, INS promoter inh cell count 80 and HSV augment primary fold 0.88.
Screening CCCC1=NN2C(=N)/C(=C\c3ccc(SCc4ccco4)o3)C(=O)N=C2S1 returned HSV augment inconclusive, RGS16-Gao 96, GALR2 agonist -0.7, PKD1 kinase inh 6, INS promoter inh 19 and INS promoter inh cell count 118.
Screening CCS(=O)(=O)N1CCCC(C(=O)NCCCN(C)Cc2ccccc2)C1 (centres undefined) returned HSV augment inactive, RGS16-Gao 102, GALR2 agonist 0.0, PKD1 kinase inh -4, INS promoter inh -22, INS promoter inh cell count 112 and HSV augment primary fold 0.83.
For CCCNC(=O)Nc1ccc(F)c(Cl)c1 the results were HSV augment inactive, RGS16-Gao 94, PKD1 kinase inh -7 and HSV augment primary fold 0.91.
`CCOc1ccccc1NC(=O)c1cccc(NC(=O)CC(c2ccccc2)c2ccccc2)c1` gave HSV augment inactive, RGS16-Gao 99, GALR2 agonist 0.1, PKD1 kinase inh 2, INS promoter inh 6, INS promoter inh cell count 113 and HSV augment primary fold 0.97.
For FC(F)(F)COc1cc(-c2nnc(SCc3ccccc3)n2Cc2ccco2)cc(OCC(F)(F)F)n1 the results were HSV augment inactive, RGS16-Gao 107 and HSV augment primary fold 1.1.
CN(C)CCCNC(=S)Nc1ccc(-c2ccccc2)cc1 was read as HSV augment inactive, RGS16-Gao 94 and HSV augment primary fold 0.86.
For Cc1ccc(N/C=C(\C#N)c2ccc(OCCCF)cc2)cc1 the results were HSV augment inactive, RGS16-Gao 95, GALR2 agonist -3.7, PKD1 kinase inh 1 and HSV augment primary fold 1.1.
Screening C=CCn1c(SCC(C)=O)nnc1-c1ccc2ncccc2c1 returned HSV augment inactive, RGS16-Gao 123 and HSV augment primary fold 0.98.
For CCOc1ccc(C(=O)Nc2nccs2)cc1[N+](=O)[O-] the results were HSV augment inactive, RGS16-Gao 107, GALR2 agonist 0.1, PKD1 kinase inh -4, INS promoter inh 40, INS promoter inh cell count 85 and HSV augment primary fold 0.9.

Fetched one by one from above, 5 records:
Screening CCCC1=NN2C(=N)/C(=C\c3ccc(SCc4ccco4)o3)C(=O)N=C2S1 returned HSV augment inconclusive, RGS16-Gao 96, GALR2 agonist -0.7, PKD1 kinase inh 6, INS promoter inh 19 and INS promoter inh cell count 118.
CN(C)CCCNC(=S)Nc1ccc(-c2ccccc2)cc1 was read as HSV augment inactive, RGS16-Gao 94 and HSV augment primary fold 0.86.
`O=C(Oc1ccc2cc(Br)ccc2c1)c1cccnc1` gave HSV augment inactive, RGS16-Gao 223, GALR2 agonist -1.1, PKD1 kinase inh 6, INS promoter inh 3, INS promoter inh cell count 80 and HSV augment primary fold 0.88.
For Cc1ccc(N/C=C(\C#N)c2ccc(OCCCF)cc2)cc1 the results were HSV augment inactive, RGS16-Gao 95, GALR2 agonist -3.7, PKD1 kinase inh 1 and HSV augment primary fold 1.1.
For CCOc1ccc(C(=O)Nc2nccs2)cc1[N+](=O)[O-] the results were HSV augment inactive, RGS16-Gao 107, GALR2 agonist 0.1, PKD1 kinase inh -4, INS promoter inh 40, INS promoter inh cell count 85 and HSV augment primary fold 0.9.

Carrying on.
For CC(=O)c1c(C)[nH]c(C(=O)Nc2cc(S(=O)(=O)N(C)C)ccc2C)c1C the results were HSV augment inactive, RGS16-Gao 71, PKD1 kinase inh -1, INS promoter inh -47, INS promoter inh cell count 168 and HSV augment primary fold 0.89.
For CNC(=O)c1cc(OCC(F)(F)F)ccc1OCC(F)(F)F the results were HSV augment inactive, RGS16-Gao 100, PKD1 kinase inh 7, INS promoter inh 20, INS promoter inh cell count 84 and HSV augment primary fold 0.98.
`Cc1cccc(C)c1NC(=O)C1(N(Cc2ccco2)C(=O)Cn2nnnc2N)CCCCC1` gave HSV augment inactive, RGS16-Gao 106, GALR2 agonist 0.0, PKD1 kinase inh -2, INS promoter inh -10, INS promoter inh cell count 101 and HSV augment primary fold 1.1.
For CNC(=S)N1CCN(C(c2ccccc2)c2ccccc2)CC1 the results were HSV augment inactive, RGS16-Gao 109, PKD1 kinase inh -3 and HSV augment primary fold 0.94.
Screening C/C(=N\NC(=O)COc1ccc(C(C)(C)C)cc1)c1ccccc1 returned HSV augment inactive, RGS16-Gao 103, PKD1 kinase inh 3, INS promoter inh -7, INS promoter inh cell count 101 and HSV augment primary fold 0.91.
`O=C(NCc1ccco1)/C(=C\c1cccnc1)NC(=O)c1ccccc1F` gave HSV augment inactive, RGS16-Gao 101, GALR2 agonist -0.9, PKD1 kinase inh 2, INS promoter inh 15, INS promoter inh cell count 105 and HSV augment primary fold 0.99.
CN1C(=O)/C(=N\OC(=O)c2ccccc2Cl)c2ccccc21 was read as HSV augment inactive, RGS16-Gao 100, PKD1 kinase inh 4, INS promoter inh 12, INS promoter inh cell count 135 and HSV augment primary fold 1.1.
C=C[C@]1(C)C[C@H]1[C@H](NP(=O)(c1ccccc1)c1ccccc1)c1ccccc1 was read as HSV augment inactive, RGS16-Gao 93, GALR2 agonist -1.9, PKD1 kinase inh -8, INS promoter inh -48, INS promoter inh cell count 111 and HSV augment primary fold 1.1.
CC(C)n1nnnc1SCC(=O)c1ccc2c(c1)OCCO2 was read as HSV augment inactive, RGS16-Gao 102, GALR2 agonist -0.7, PKD1 kinase inh -3, INS promoter inh -26, INS promoter inh cell count 73 and HSV augment primary fold 0.95.
For CCn1c(=O)c(=O)[nH]c2cc(C(=O)NC3CCCc4ccccc43)ccc21 (centres undefined) the results were HSV augment inactive, RGS16-Gao 98, GALR2 agonist -1.7, PKD1 kinase inh -1, INS promoter inh -3, INS promoter inh cell count 132 and HSV augment primary fold 0.53.
`Cc1nn(CCCC(=O)Nc2ccc(Br)cc2F)c(C)c1[N+](=O)[O-]` gave RGS16-Gao 109, PKD1 kinase inh -2, INS promoter inh 15 and INS promoter inh cell count 117.
Screening CON1C(=O)C(=O)N(OC)C(C)(C)C1C (centres undefined) returned HSV augment inactive, RGS16-Gao 100, GALR2 agonist -0.8, PKD1 kinase inh -1, INS promoter inh 11, INS promoter inh cell count 138 and HSV augment primary fold 0.92.
For CC1=C(C(=O)N2CCN(c3cc(C)ccc3C)CC2)C2(CCC(C)CC2)OC1=O (centres undefined) the results were HSV augment inactive, RGS16-Gao 102, GALR2 agonist -0.2, PKD1 kinase inh -10, INS promoter inh -30, INS promoter inh cell count 92 and HSV augment primary fold 0.72.
Screening Cc1nn(C)c(Oc2cccc(Cl)c2)c1C(=O)Nc1ccc(F)cc1 returned HSV augment inactive, RGS16-Gao 170, GALR2 agonist -0.9, PKD1 kinase inh -9, INS promoter inh 3, INS promoter inh cell count 73 and HSV augment primary fold 0.9.
For CCC(=O)c1cc(F)c(N2CCN(C(=O)Cc3ccccc3)CC2)cc1C the results were HSV augment inactive, RGS16-Gao 159, GALR2 agonist -2.1, PKD1 kinase inh -7, INS promoter inh 32, INS promoter inh cell count 47 and HSV augment primary fold 0.69.
CCN(C#N)c1nc(N(C)C)nc(N(C)C)n1 was read as HSV augment inactive, RGS16-Gao 103, GALR2 agonist -2.2, PKD1 kinase inh 0, INS promoter inh -49, INS promoter inh cell count 82 and HSV augment primary fold 0.99.
For CC(=O)NS(=O)(=O)c1ccc(NC(=O)COc2ccc(C(=O)c3ccccc3)cc2)cc1 the results were HSV augment inactive, RGS16-Gao 18, GALR2 agonist 0.1, PKD1 kinase inh -5, INS promoter inh 29, INS promoter inh cell count 60 and HSV augment primary fold 0.96.
`Cc1cccn2c(=O)c3cc(C#N)c(=NC(=O)c4cccs4)n(CC(C)C)c3nc12` gave HSV augment inactive, RGS16-Gao 104 and HSV augment primary fold 0.97.
`O=C(Nc1nnc(SCc2ccc(Cl)cc2)s1)C1CC(=O)N(Cc2ccccc2)C1` (centres undefined) gave HSV augment inactive, RGS16-Gao 93, GALR2 agonist -0.9, PKD1 kinase inh 13, INS promoter inh -38, INS promoter inh cell count 115 and HSV augment primary fold 1.
For COc1cccc(NC(=S)N(Cc2ccccn2)Cc2ccccc2Cl)c1 the results were HSV augment inactive, RGS16-Gao 99, PKD1 kinase inh 1 and HSV augment primary fold 1.
`O=C(NC1CCCCC1)c1ccc(Cl)c(NC(=O)c2ccccc2F)c1` gave HSV augment inactive, RGS16-Gao 107, GALR2 agonist 0.7, PKD1 kinase inh -11, INS promoter inh -17, INS promoter inh cell count 131 and HSV augment primary fold 0.95.
`CC(=O)Nc1cccc(/C(C)=N/NC(=S)NC(C)C)c1` gave HSV augment inactive, RGS16-Gao 103, PKD1 kinase inh 2 and HSV augment primary fold 1.
For O=C(O)CCC(=O)OCC1CCCCC1 the results were HSV augment inactive, RGS16-Gao 102, GALR2 agonist -1.1, PKD1 kinase inh 3, INS promoter inh -4, INS promoter inh cell count 143 and HSV augment primary fold 0.83.
O=C(CC1N=C2c3ccccc3N=C(SCc3ccccc3Cl)N2C1=O)NCc1ccco1 (centres undefined) was read as HSV augment inactive, RGS16-Gao 101, GALR2 agonist 3.6, PKD1 kinase inh 3, INS promoter inh 47, INS promoter inh cell count 23 and HSV augment primary fold 0.94.
Screening CCn1cnc2cc(NCc3ccncc3)ccc21 returned HSV augment inactive, RGS16-Gao 97, GALR2 agonist -1.3, PKD1 kinase inh -6, INS promoter inh -66, INS promoter inh cell count 108 and HSV augment primary fold 0.68.
NC(=O)CCn1c(=O)oc2ccccc21 was read as HSV augment inactive, RGS16-Gao 103, GALR2 agonist -1.8, PKD1 kinase inh 0, INS promoter inh 25, INS promoter inh cell count 124 and HSV augment primary fold 0.86.
`NC(=O)CSc1nnc(Cn2c(=O)sc3ccccc32)n1CCc1ccccc1` gave HSV augment inactive, RGS16-Gao 98, GALR2 agonist -0.6, PKD1 kinase inh -8 and HSV augment primary fold 1.3.
Cc1nc2sc(C(c3ccccc3)N3CCC(O)CC3)c(O)n2n1 (centres undefined) was read as HSV augment inactive, RGS16-Gao 106, GALR2 agonist -0.9, PKD1 kinase inh -14 and HSV augment primary fold 0.98.
